miR-21 reporter: miR-21 reporter, rising signal; AID 2288; Potency, µM (top dose mostly 38.3 µM), for inactives: at the highest dose reporter change, positive = more light; 340,000 tested, under 10 active; HeLa miR-21 FLuc reporter, luciferase, 48 h; active = well fitted rising curve with a large enough effect; inconclusive = small, poorly fitted or top-dose-only effect; inactive = no such curve, though single readings can be large or run the other way;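 also: % of control where 0% means no effect; miR-21 action dims this reporter so a rising signal means less miR-21 action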
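HeLa miR-21-FLuc reporter line, endogenous miR-21; 2000 cells/well in DMEM/10% FBS; compound titration up to ~40uM final, 48 h, 37 degree Celsius; luciferase detection reagent, 15 min lysis, CCD luminescence.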
Starred values were filed as active, the others as inactive; ? = inconclusive. Not all compounds are listed; the hit share may differ from the screen's.

miR-21 reporter | mol
-1% | CCc1ccc(NC(=O)Cn2c(=O)n(Cc3nc(C)no3)c(=O)c3cc4c(cc32)OCO4)cc1
1% | COc1ccc(C)cc1NC(=O)c1oc2ccc(S(=O)(=O)N3CCCCC3)cc2c1C
? | O=C1Cc2cc(S(=O)(=O)Nc3ccc(OC(F)(F)F)cc3)cc3c2N1CCC3
3% | CC1=C(C(=O)OCC2CCCCC2)C(c2cccc(O)c2)NC(=O)N1 (stereo not drawn)
-13% | Cc1ccc(OCC(=O)Nc2cc3nn(-c4ccccc4)nc3cc2C)cc1
-2% | COc1ccc(NC(=O)C2CCCN(S(=O)(=O)c3c(C)[nH]c(=O)[nH]c3=O)C2)c(OC)c1 (stereo not drawn)
0% | Cc1cccc(S(=O)(=O)c2cn(C)c3cc(N4CCN(c5ccccc5)CC4)c(F)cc3c2=O)c1
-12% | COc1ccc(Cn2ccnc2SCC(=O)Nc2ccc3c(c2)OCCO3)cc1
-1% | CCOc1ccc(-n2c(-c3ccccc3)c(C)n3c4c(=O)n(C)c(=O)n(C)c4nc23)cc1
? | O=C(Nc1ccc2c(c1)N(C1CCCC1)C(=O)c1ccccc1S2)c1cccc(F)c1
2% | CC1(C(=O)NC2CCCCC2)Cc2ccccc2C(=O)N1Cc1ccc(F)cc1 (stereo not drawn)
-2% | Cc1c2cnn(-c3ccccc3)c(=O)c2c(C)n1CC(=O)NCc1ccccc1
2% | Cc1cccc(-c2nc(S(=O)(=O)c3ccccc3)c(N3CCN(c4ccccc4)CC3)o2)c1
-2% | Cc1cccc(NC(=O)N2CCN3CCCCC3C2)c1C (stereo not drawn)
2% | COc1cccc(Cn2c(=O)n(-c3cc(C)cc(C)c3)c(=O)c3oc4ccccc4c32)c1
18% | CCOc1ccc(NCc2cccn2-c2nnc(N3CCC(C(=O)NCc4cccc(OC)c4)CC3)s2)cc1
11% | COc1ccc(CCNC(=O)CCCn2c(=O)c3ccccc3n(Cc3cccc(Cl)c3)c2=O)cc1OC
0% | O=C(c1cccc([N+](=O)[O-])c1)N1CCN(CCc2ccncc2)CC1
2% | Cc1nnc(NC(=O)CSCc2cc(=O)c3ccc(C)c(C)c3[nH]2)s1
5% | CCC1Oc2ccc(C)cc2N(CC(=O)NCc2ccc(F)cc2)C1=O (stereo not drawn)

Given field by field: four of the compounds above
canonical_smiles: COc1ccc(CCNC(=O)CCCn2c(=O)c3ccccc3n(Cc3cccc(Cl)c3)c2=O)cc1OC
  miR-21 reporter: 11%

canonical_smiles: O=C(c1cccc([N+](=O)[O-])c1)N1CCN(CCc2ccncc2)CC1
  miR-21 reporter: 0%

canonical_smiles: Cc1nnc(NC(=O)CSCc2cc(=O)c3ccc(C)c(C)c3[nH]2)s1
  miR-21 reporter: 2%

canonical_smiles: CCC1Oc2ccc(C)cc2N(CC(=O)NCc2ccc(F)cc2)C1=O (stereo not drawn)
  miR-21 reporter: 5%

Back to the main list; the 6 compounds before the break are reprinted first.
miR-21 reporter | mol
2% | COc1cccc(Cn2c(=O)n(-c3cc(C)cc(C)c3)c(=O)c3oc4ccccc4c32)c1
18% | CCOc1ccc(NCc2cccn2-c2nnc(N3CCC(C(=O)NCc4cccc(OC)c4)CC3)s2)cc1
11% | COc1ccc(CCNC(=O)CCCn2c(=O)c3ccccc3n(Cc3cccc(Cl)c3)c2=O)cc1OC
0% | O=C(c1cccc([N+](=O)[O-])c1)N1CCN(CCc2ccncc2)CC1
2% | Cc1nnc(NC(=O)CSCc2cc(=O)c3ccc(C)c(C)c3[nH]2)s1
5% | CCC1Oc2ccc(C)cc2N(CC(=O)NCc2ccc(F)cc2)C1=O (stereo not drawn)
4% | CNC(=O)c1c(NC(=O)Cc2coc3ccc(C)cc23)sc2c1CCCC2
5% | COc1ccccc1NC(=O)c1oc2ccccc2c1NC(=O)C(C)C
-31% | CCN(Cc1ccccc1)c1ncnc2c1cnn2-c1ccc(F)cc1
? | Cn1c(=O)c2c(nc(NCc3ccccc3)n2Cc2ccc(Cl)c(Cl)c2)n(C)c1=O
-16% | CC(C)c1ccc(S(=O)(=O)c2nnn3c2nc(N2CCOCC2)c2sccc23)cc1
-3% | COC(=O)c1c(-c2ccc(Cl)cc2)noc1N1CCN(c2ccccc2OC)CC1
16% | Cc1cc(N2CCCCC2)nc2ccc(NC(=O)CCC(=O)N3CCN(c4cccc(Cl)c4)CC3)cc12
-4% | COc1ccc(N(C)C(=O)C2CCN(S(=O)(=O)c3cc(Br)cc4c3N(C(C)=O)CC4)CC2)cc1
-27% | Cc1ccc(C(=O)Nc2ccc(C(=O)OCc3cc(=O)n4ccsc4n3)cc2)cc1
5% | CN1CCN(C(=O)c2cnn(-c3ccc(F)cc3F)c2C2CCN(C(=O)OC(C)(C)C)CC2)CC1
0% | CCOc1ccccc1CNC(=O)c1cnc2sc(N3CCCCCC3)nn2c1=O
1% | Cc1ccc(-n2ncc(C(=O)N3CCN(c4cccc(C)c4)C(C)C3)c2C2CCN(C(=O)OC(C)(C)C)CC2)cc1 (stereo not drawn)
4% | CCCOc1ccc(C2c3c(-c4ccccc4O)n[nH]c3C(=O)N2Cc2cccnc2)cc1 (stereo not drawn)
-6% | COc1ccc(NC(=O)CSc2nc(-c3ccco3)nc3cc(=O)[nH]n23)cc1
-13% | COc1ccccc1CCNC(=O)c1ccc2c(c1)c(C)c(C)n2C
0% | CCOc1ccc(CCNC(=O)c2ccc3c(c2)N(Cc2ccccc2F)C(=O)c2ccccc2S3=O)cc1OCC (stereo not drawn)
4% | COc1cccc(C(=O)c2cn(CC(=O)NCCc3ccccc3)c3nc(C)ccc3c2=O)c1
1% | Cc1ccc(Cc2nc3ccccc3nc2SCC(=O)NCCc2ccccc2)cc1
18% | CCCSc1oc(-c2cccs2)nc1S(=O)(=O)c1ccc(C)cc1
-1% | Cc1cc(C)cc(-n2ccn(CC(=O)Nc3ccccc3F)c(=O)c2=O)c1

Part of the list above, as a markdown table:
| SMILES | miR-21 reporter |
| --- | --- |
| COc1ccc(N(C)C(=O)C2CCN(S(=O)(=O)c3cc(Br)cc4c3N(C(C)=O)CC4)CC2)cc1 | -4% |
| Cc1ccc(Cc2nc3ccccc3nc2SCC(=O)NCCc2ccccc2)cc1 | 1% |
| CCN(Cc1ccccc1)c1ncnc2c1cnn2-c1ccc(F)cc1 | -31% |

Other results.
miR-21 reporter | mol
-34% | Cc1csc2nc(COc3cccc(NC(=O)c4ccccc4F)c3)cc(=O)n12
-16% | Cc1ccc(-c2nnc(Nc3cccc(Cl)c3)c3ccccc23)cc1S(=O)(=O)N1CCCCC1
-4% | CC(C)c1nn2c(=O)cc(COC(=O)c3ccccc3NC(=O)c3cccc(Cl)c3)nc2s1
1% | COc1ccccc1N=C1SC(C(=O)Nc2ccccc2OC)CC(=O)N1C (stereo not drawn)
1% | CC(NC(=O)c1ccccc1NC(=O)c1nsc2ccccc12)c1ccccc1 (stereo not drawn)
-28% | CC1CCc2nn(CC(=O)Nc3ccccc3Cl)cc2C1 (stereo not drawn)
5% | COc1cc2c(cc1OC)n(CC(=O)c1cccc(Cl)c1)c(=O)n1nc(CCn3nc(C)cc3C)nc21
? | O=C(Nc1ccc2nc(SCC(=O)N3CCCC3)sc2c1)c1cccc(Br)c1
3% | Clc1ccccc1-c1nc(Nc2ccccc2)nc2ccc(Br)cc12
-1% | O=C(CSc1nnc(-c2ccncc2)n1-c1ccccc1)Nc1ccc(F)cc1
12% | COc1cccc(CNC(=O)c2ccc(NC(=O)N3CC(C)Sc4ccccc43)cc2)c1 (stereo not drawn)
1% | Cc1cc(Br)ccc1NC(=O)COc1cc(=O)n(C)c2ccccc12
24% | CC(C)N(Cc1ccccc1)C(=O)c1cc2ccc3cccnc3c2[nH]1
-5% | Cc1ccc2c(c1)-c1c(c(C(=O)NCCc3ccccc3)nn1C)CS2
-4% | COc1ccc(OCC(=O)Nc2ccc3nn(-c4ccc(OC)cc4)nc3c2)cc1
-15% | O=c1c(N2CCN(c3cccc(C(F)(F)F)c3)CC2)csc2ccccc12
11% | Cc1ccc2occ(CC(=O)N(Cc3ccc(C(C)C)cc3)C3CCS(=O)(=O)C3)c2c1 (stereo not drawn)
-24% | O=C(Nc1ccc2nc3n(c(=O)c2c1)CCCCC3)C(=O)Nc1ccccc1F
-1% | O=C(Nc1cc(Cl)ccc1Cl)c1cc(S(=O)(=O)N2CCc3ccccc3C2)ccc1F
3% | CCOC(=O)CSc1nc2c([nH]c3ccccc32)c(=O)n1-c1ccc(OC)cc1

Additional records
miR-21 reporter | mol
? | COc1ccc(-c2nsc(NC(=O)C(C)Oc3ccc(Cl)c(C)c3)n2)cc1 (stereo not drawn)
-10% | COc1ccc(C(=O)Nc2ccc3c(c2)CCCN3S(=O)(=O)c2ccc(C)cc2)c(OC)c1
18% | Cc1cccc(N2CCN(CCCNC(=O)c3nnc(Cc4c(F)cccc4Cl)o3)CC2C)c1 (stereo not drawn)
21% | CCC1=Nc2cc(C(=O)NCCCOC(C)C)ccc2Sc2ccc(C)cc21
4% | CCC(C)NC(=O)Cn1c(=O)n(Cc2ccc(C(=O)NCCCOC)cc2)c(=O)c2ccccc21 (stereo not drawn)
-6% | COc1ccc(CCNC(=O)c2c(C)oc3nc(C)nc(N4CCOCC4)c23)cc1OC
-18% | O=C(CN1C(=O)CCc2cc(S(=O)(=O)N3CCOCC3)ccc21)NCc1ccccc1Cl
3% | O=C(NCC(c1cccs1)S(=O)(=O)c1cccs1)c1cccc(F)c1 (stereo not drawn)
-7% | Cc1ccc(C(=O)NCc2ccc(N(C)C)cc2)cc1NC(=O)c1nsc2ccccc12
-1% | CCOC(=O)Cn1c(=O)cc(C(F)(F)C(F)(F)F)c2c(C)nn(CC)c21
? | COc1cc(OC)c(NC(=O)Cc2ccc(-n3c(C)nc4cccnc43)cc2)cc1Cl
-1% | COc1ccccc1CNC(=O)CCn1c(=O)c2ccccc2n(CC(=O)Nc2cc(Cl)ccc2C)c1=O
-36% | Cc1ccc(S(=O)(=O)c2nnn3c2nc(NC(C)C)c2sccc23)cc1
-7% | COc1ccc(CCNC(=O)Cn2c(=O)c3cccn3c3ccc(F)cc32)c(OC)c1
22% | CCOC(=O)c1ccc(NC(=O)C2CCN(S(=O)(=O)c3ccc4c(c3)CCCC(=O)N4)CC2)cc1
-16% | CC(=O)c1ccc(NC(=O)c2cc(-c3ccc4c(c3)OCO4)on2)cc1
-2% | O=C(NCCc1csc(-c2ccc(F)cc2)n1)c1ccco1
0% | COc1ccc(C(=O)N2CCN(C(=O)COc3ccc(C)cc3)CC2)cc1OC
4% | Cc1ccc(O)c(NC(=O)CCSc2nc(-c3ccco3)cc(C(F)(F)F)n2)c1
-5% | COC(=O)c1c(-c2cccs2)csc1NC(=O)COc1ccc(C(C)(C)C)cc1

The results go on.
miR-21 reporter | mol
4% | CC(C)Cn1c(=O)c2ccccc2n2c(CCC(=O)Nc3ccc(F)cc3)nnc12
3% | CCc1ccc(N(CC)C(=O)Cn2cnc3sc(C)c(S(=O)(=O)N4CCN(c5ncccn5)CC4)c3c2=O)cc1
-3% | Cc1cccc(NC(=O)CSc2nc3ccccc3nc2N2CCOCC2)c1C
0% | CCc1ccc(C(=O)c2cn(CC(=O)Nc3ccc(F)cc3)c3ccc(OC)cc3c2=O)cc1
14% | COc1ccc(N2CCN(C(=O)C3CCN(S(=O)(=O)c4cccc5nonc45)CC3)CC2)cc1
-2% | Cc1ccc(CNC(=O)CCc2nnc3n(C)c(=O)c4sccc4n23)cc1
1% | Cc1cc(-n2c(C)nc3ccccc3c2=O)ccc1NC(=O)c1cccc([N+](=O)[O-])c1
-14% | CCOC(=O)c1c(C)[nH]c(C)c1S(=O)(=O)N1CCCC(C(=O)Nc2ccc(OC)c(Cl)c2)C1 (stereo not drawn)
-43% | Cc1cccc(-c2nc3c(cnn3-c3ccccc3)c(=O)n2-c2ccc(Cl)cc2)c1
-3% | COc1ccc(CCNC(=O)CCc2c(C)nc3c(c(C)nn3-c3ccccc3)c2C)c(OC)c1
-8% | Cc1cccc(OCC(=O)NCC2(N3CCN(C)CC3)CCCCC2)c1
6% | COc1ccc(CCNC(=O)CCc2cn(Cc3ccc(C)cc3)c3ccccc23)c(OC)c1OC
-7% | CCc1cccc(NC(=O)c2cc3c(=O)[nH]c4ccccc4c3n2C)c1
1% | O=C(CSc1nnc(-c2ccc(Cl)cc2)o1)N1CCc2ccccc21
-1% | CCSc1oc(-c2cccs2)nc1S(=O)(=O)c1ccc(Br)cc1
27% | COc1ccccc1Cn1c(C2CC(=O)N(c3ccccc3OC)C2)nc2ccccc21 (stereo not drawn)
-38% | CC(=O)N1CCc2cc(CNS(=O)(=O)c3ccc(Cl)s3)ccc21
-4% | Cc1ccc(NC(=O)CN(C)S(=O)(=O)c2ccc3nc(C)sc3c2)c(C)c1
? | CCC(C(=O)NCc1ccc(OC)c(OC)c1)n1nc(C)c2c(C)n(-c3ccc(C)cc3)nc2c1=O (stereo not drawn)
-5% | CCOC(=O)N1CCc2c(sc3c2C(=O)NC(c2cc(OC)c(O)c(OC)c2)N3)C1 (stereo not drawn)

The listing continues.
miR-21 reporter | mol
-3% | COC(=O)c1ccccc1NC(=O)CSc1nc2ccccc2nc1Cc1ccccc1OC
-33% | Cc1cccc(-n2nnc(-c3nc(-c4ccccc4)no3)c2N)c1C
6% | COC(=O)c1scc(-c2ccccc2)c1S(=O)(=O)Nc1ccc(C)c(Cl)c1
-3% | Cc1cccc(N2CCN(S(=O)(=O)c3ccc4oc(=O)c5ncn(C)c5c4c3)CC2C)c1 (stereo not drawn)
? | CCOC(=O)c1ccc(N2C(=O)c3[nH]nc(-c4ccc(OC)cc4)c3C2c2ccc(C)cc2)cc1 (stereo not drawn)
0% | CCOc1ccc(CNC(=O)C2CCN(S(=O)(=O)c3cn(C)cn3)CC2)cc1OC

Screening results from PubChem BioAssay.
